Source: PubChem BioAssay
DUX4 txn inh – inhibitors of DUX4-driven ZSCAN4 reporter expression, primary screen, 293T cells, Gaussia and Italica luciferase | hit rate 0.8% among 37,000 | 293T-iDUX4 ZSCAN4-Gaussia luciferase reporter, 24 h; stronger effect = lower value | activity change, negative = inhibition, % (no concentration beside the values) | AID 1224904, 2016;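 active = -10% or lower and over 25 points stronger than a control reporter; inconclusive = -10% or lower with a smaller gap; inactive = above -10%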;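 note: 0% = median of neutral control wells and -100% = median of positive control wells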
DUX4 txn inh difference – also measured in DUX4 txn inh; calls as there; Gaussia minus Italica difference, %; measured here: selective DUX4 reporter inhibition;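 worked out from the two reporters; negative = selective loss of the DUX4 reporter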
DUX4 txn inh control – recorded beside DUX4 txn inh, whose call it bears; activity change, negative = inhibition, %; measured here: Italica tet-on control reporter;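 0 = neutral control and -100 = positive control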
* = called active by the depositor; ? = inconclusive; . = not tested or not shown; & = joins results of further samples.

nr	mol	DUX4 txn inh	DUX4 txn inh difference	DUX4 txn inh control
1	CN(C)C(=O)[C@H]1[C@H](CO)[C@H]2Cn3c(ccc(-c4ccc(F)cc4)c3=O)[C@@H]1N2CCc1ccccc1	-6	-9	2.6
2	C[C@H](NC(=O)C[C@H]1CC[C@H]2[C@@H](COC[C@H](O)CN2C(=O)Nc2cccc(Cl)c2)O1)c1ccccc1	-5	2	-7.7
3	C/C=C/c1ccc([C@H]2[C@@H](CN(C)C(=O)CC)N(C(=O)NCCC)[C@H]2CO)cc1	-2	-1	-1.0
4	COc1ccc([C@@H]2C/C=C\C[C@@H](c3cccc(Cl)c3)NC(=O)[C@@H](c3ccccc3)CC(=O)N2)c(OC)c1	1	-4	4.8
5	CCC(=O)N1CC2(C1)CN(S(C)(=O)=O)[C@H](CO)c1[nH]c3cc(OC)ccc3c12	16	16	0.3
6	COc1ccc(NC(=O)Nc2ccc3c(c2)C(=O)N([C@H](C)CO)C[C@@H](C)[C@@H](CN(C)Cc2ccncc2)OCCCC[C@H](C)O3)cc1	-2	-2	0.2
7	C[C@@H]1CN([C@@H](C)CO)C(=O)c2cc(C#Cc3cccnc3)cnc2O[C@H]1CN(C)S(C)(=O)=O	-5	-4	-1.0
8	Cn1cnc(S(=O)(=O)N[C@@H]2C=C[C@H](CC(=O)N3CCN(c4ccccc4)CC3)O[C@@H]2CO)c1	-1	1	-1.7
9	CCCNC(=O)N1[C@H](CO)[C@H](c2ccccc2-c2ccc(C)cc2)[C@@H]1C#N	?	.	.
10	CC(C)N(C[C@@H]1N[C@H](CO)[C@@H]1c1ccccc1)C(=O)c1ccccc1	-1	-3	1.2
11	O=C(C[C@@H]1CC[C@@H]2[C@H](COC[C@@H](O)CN2Cc2cc(F)ccc2F)O1)NCc1ccc(Cl)cc1	?	.	.
12	COc1ccccc1S(=O)(=O)N[C@@H]1C=C[C@@H](CC(=O)NCc2cccc(F)c2)O[C@@H]1CO	0	4	-3.8
13	O=C(C[C@H]1CC[C@@H]2[C@H](COC[C@@H](O)CN2Cc2ccc(C(F)(F)F)cc2)O1)NCCc1ccccc1	?	.	.
14	C[C@@H]1CCCCO[C@@H](CN(C)C(=O)C2CCCCC2)[C@@H](C)CN([C@@H](C)CO)C(=O)c2cc(N(C)C)ccc2O1	-1	-3	2.5
15	CO[C@H]1CC[C@H]2CCN(C)C(=O)CC3(CCCCC3)CN(C)C(=O)c3cc(C#N)ccc3OC[C@H]1O2	3	4	-0.5
16	CN1c2ccc(Br)cc2[C@H]2[C@H](CCN2S(=O)(=O)c2ccccc2)[C@H]1CO	0	-11	10

A draw from above in order of SMILES length, lowest first:
nr	mol	DUX4 txn inh	DUX4 txn inh difference	DUX4 txn inh control
10	CC(C)N(C[C@@H]1N[C@H](CO)[C@@H]1c1ccccc1)C(=O)c1ccccc1	-1	-3	1.2
5	CCC(=O)N1CC2(C1)CN(S(C)(=O)=O)[C@H](CO)c1[nH]c3cc(OC)ccc3c12	16	16	0.3
13	O=C(C[C@H]1CC[C@@H]2[C@H](COC[C@@H](O)CN2Cc2ccc(C(F)(F)F)cc2)O1)NCCc1ccccc1	?	.	.
4	COc1ccc([C@@H]2C/C=C\C[C@@H](c3cccc(Cl)c3)NC(=O)[C@@H](c3ccccc3)CC(=O)N2)c(OC)c1	1	-4	4.8
14	C[C@@H]1CCCCO[C@@H](CN(C)C(=O)C2CCCCC2)[C@@H](C)CN([C@@H](C)CO)C(=O)c2cc(N(C)C)ccc2O1	-1	-3	2.5

Next section.
nr	mol	DUX4 txn inh	DUX4 txn inh difference	DUX4 txn inh control
17	CNC[C@@H]1OCCCC[C@@H](C)Oc2ccc(NC(=O)C3CCCCC3)cc2C(=O)N([C@H](C)CO)C[C@H]1C	-2	-5	3.6
18	C[C@@H]1CN([C@H](C)CO)C(=O)CCCn2nncc2CO[C@@H]1CN(C)S(=O)(=O)c1ccc2ccccc2c1	3	1	1.7
19	CCS(=O)(=O)N1CC(=O)N2[C@H](CO)[C@H](c3ccc(-c4ccc(C)cc4)cc3)[C@@H]2C1	3	1	1.8
20	C/C=C/c1ccccc1[C@@H]1[C@@H](C#N)N(C(C)=O)[C@H]1CO	16	13	3.7
21	COCC(=O)Nc1ccc2c(c1)C(=O)N(C)[C@@H]1CC[C@@H](CC(=O)NC3CCCC3)O[C@H]1CO2	6	4	1.5
22	C[C@H](CO)N1C[C@H](C)[C@H](CN(C)C(=O)c2ccccc2)OCCCC[C@H](C)Oc2ccc(NC(=O)C3CCCCC3)cc2C1=O	0	-6	5.7
23	C/C=C/c1ccc([C@H]2[C@@H](CO)N(C(=O)CC)[C@H]2CNC(=O)C2CC2)cc1	-1	6	-7.0
24	COc1cccc(NC(=O)N[C@H]2CC[C@@H](CC(=O)N3CCN(C)CC3)O[C@@H]2CO)c1	4	3	0.6
25	O=C(C[C@@H]1C=C[C@H](NC(=O)Nc2cccc(F)c2)[C@@H](CO)O1)NCC1CCCCC1	4	11	-7.4
26	OC[C@@H]1[C@@H](c2ccccc2)[C@@H](CNCC2CCC2)N1CC1CC1	2	3	-1.0
27	C(=C\c1ccc(C2[C@H]3CNC[C@@H]2N3CC2CCOCC2)cc1)/c1ccccc1 (some centres not stated)	8	17	-8.8
28	C[C@H]1CN([C@@H](C)CO)C(=O)c2cc(NC(=O)Nc3cccc4ccccc34)ccc2O[C@@H]1CN(C)Cc1ccc(Cl)c(Cl)c1	-4	-4	-0.4
29	O=C(C[C@@H]1CC[C@H]2[C@@H](COC[C@@H](O)CN2C(=O)c2cnccn2)O1)NCc1ccc(Cl)cc1	5	3	2.1
30	COCC(=O)N1[C@H](C#N)[C@@H](c2ccc(C#CCC3CCCC3)cc2)[C@H]1CO	-1	0	-1.3
31	COCCNC(=O)C[C@H]1CC[C@@H]2[C@@H](COc3ccc(NS(=O)(=O)c4ccc(Cl)cc4)cc3C(=O)N2C)O1	-2	-5	2.4
32	O=C(C[C@H]1C[C@@H]2c3cc(NC(=O)C4CCOCC4)ccc3O[C@@H]2[C@@H](CO)O1)NCc1cccnc1	1	3	-2.2

Next part, starting with the last 5 of the part before.
nr	mol	DUX4 txn inh	DUX4 txn inh difference	DUX4 txn inh control
28	C[C@H]1CN([C@@H](C)CO)C(=O)c2cc(NC(=O)Nc3cccc4ccccc34)ccc2O[C@@H]1CN(C)Cc1ccc(Cl)c(Cl)c1	-4	-4	-0.4
29	O=C(C[C@@H]1CC[C@H]2[C@@H](COC[C@@H](O)CN2C(=O)c2cnccn2)O1)NCc1ccc(Cl)cc1	5	3	2.1
30	COCC(=O)N1[C@H](C#N)[C@@H](c2ccc(C#CCC3CCCC3)cc2)[C@H]1CO	-1	0	-1.3
31	COCCNC(=O)C[C@H]1CC[C@@H]2[C@@H](COc3ccc(NS(=O)(=O)c4ccc(Cl)cc4)cc3C(=O)N2C)O1	-2	-5	2.4
32	O=C(C[C@H]1C[C@@H]2c3cc(NC(=O)C4CCOCC4)ccc3O[C@@H]2[C@@H](CO)O1)NCc1cccnc1	1	3	-2.2
33	CC(=O)N(C)C[C@@H]1OCc2ccccc2-c2c(n(C)c3ccccc23)C(=O)N([C@@H](C)CO)C[C@H]1C	17	21	-4.1
34	O=C(Cc1ccncc1)N1CC[C@@H]2[C@H](CO)Nc3ccc(Br)cc3[C@@H]21	13	14	-0.7
35	O=C(CC1CC1)N1CC2(C1)[C@@H](c1ccccc1)[C@H](CO)N2Cc1ccc(F)cc1	0	3	-3.4
36	CN1CCCCN2[C@H](CO)[C@@H](c3ccc(C#Cc4ccccc4F)cc3)[C@@H]2C1	?	.	.
37	CC(C)C#Cc1ccc2c(c1)O[C@@H](CN(C)C(=O)c1ccncc1)[C@H](C)CN([C@H](C)CO)S2(=O)=O	0	-2	2.5
38	COc1ccc2c3c(n(C)c2c1)[C@H](CO)N(C(=O)C1CCOCC1)CC31CN(Cc2cccc(F)c2)C1	?	.	.
39	CNC[C@H]1Oc2ccc(NC(=O)Nc3ccc(C(F)(F)F)cc3)cc2CC(=O)N([C@@H](C)CO)C[C@@H]1C	3	2	1.6
40	COc1ccc([C@@H]2C/C=C\C[C@H](C(C)C)NC(=O)CCC(=O)N2)c(OC)c1	1	2	-1.0
41	C[C@@H]1CN([C@H](C)CO)S(=O)(=O)c2ccc(-c3ccccc3F)cc2O[C@@H]1CN(C)C(=O)C1CC1	-7	-2	-4.9
42	C[C@@H]1CN([C@@H](C)CO)C(=O)c2c(c3ccccc3n2C)-c2ccccc2CO[C@H]1CN(C)C(=O)Nc1cccc(F)c1	-5	-9	3.8
43	O=C(C1CCCC1)N1C[C@@H]2[C@H](c3ccccc31)[C@@H](CO)N2C(=O)c1cccnc1	1	2	-1.2
44	C[C@@H](NC(=O)[C@@H]1[C@@H](CO)[C@@H]2Cn3c(ccc(-c4cccnc4)c3=O)[C@H]1N2C)c1ccccc1	-2	0	-2.1
45	C[C@H](CO)N1C[C@H](C)[C@@H](CN(C)C(=O)Nc2ccc3c(c2)OCO3)OCc2ccccc2-c2ccccc2C1=O	20	16	3.8
46	CN(C)CC(=O)N[C@@H]1C=C[C@H](CC(=O)NCc2ccc(Cl)cc2)O[C@H]1CO	1	2	-0.3
47	CN(C)c1ccc2c(c1)[C@H]1C[C@@H](CC(=O)NCc3ccccn3)O[C@@H](CO)[C@H]1O2	8	6	2.4
48	CN1c2ccc(C3=CCCCC3)cc2[C@@H]2[C@@H](CCN2C(=O)c2ccccc2F)[C@@H]1CO	1	-6	7.1
49	CCCNC(=O)Nc1ccc2c(c1)OC[C@H](C)N(C(=O)c1ccccc1F)C[C@@H](C)[C@@H](OC)CN(C)C2=O	2	2	0.6
50	CNC[C@H]1Oc2c(NS(=O)(=O)c3ccc(Cl)cc3)cccc2C(=O)N([C@H](C)CO)C[C@@H]1C	-5	-4	-1.1
51	CCCNC(=O)N1[C@H](CO)[C@H](c2ccc(C#CC3CC3)cc2)[C@H]1CNC	-3	-8	5.4
52	CN(C)C(=O)c1cccc(-c2ccc([C@@H]3[C@@H](CO)N4CCCCN(S(C)(=O)=O)C[C@@H]34)cc2)c1	35	40	-4.7
53	O=C(C[C@H]1CC[C@H]2[C@@H](COC[C@H](O)CN2CCC(F)(F)F)O1)N1CCC(Cc2ccccc2)CC1	?	.	.
54	c1cncc(-c2ccc(C3[C@H]4CNC[C@@H]3N4Cc3ccc4c(c3)OCO4)cc2)c1 (some centres not stated)	20&9	3&10	17&-1.3
55	CN1C(=O)c2cc(NC(=O)Cc3cccs3)ccc2OC[C@H]2O[C@H](CC(=O)NCC3CCCCC3)CC[C@@H]21	1	-1	2.0
56	CC(C)NC(=O)N1C[C@@H]2[C@H](c3ccccc31)[C@@H](CO)N2C(=O)c1ccccc1	-1	-4	3.7
57	CN(C)C(=O)C[C@H]1CC[C@@H]2[C@H](COC[C@@H](O)CN2CC2CCCCC2)O1	3	-6	8.9
58	COc1ccc(S(=O)(=O)N(C)C[C@@H]2OCCCC[C@@H](C)Oc3ccc(NC(=O)Nc4cccc5ccccc45)cc3C(=O)N([C@H](C)CO)C[C@@H]2C)cc1	1	-4	4.9
59	Cc1ccc(S(=O)(=O)N2C[C@@H]3[C@H](c4ccccc42)[C@@H](CO)N3Cc2cccnc2)cc1	3	-2	4.6
60	C[C@H]1CN([C@@H](C)CO)S(=O)(=O)c2ccc(-c3cccc(F)c3)cc2O[C@H]1CN(C)C(=O)Nc1cc(F)ccc1F	-4	-6	2.5
61	C[C@H](CO)N1C[C@H](C)[C@H](CN(C)S(=O)(=O)c2cn(C)cn2)OCc2ccccc2-c2c(n(C)c3ccccc23)C1=O	12	13	-1.2
62	CCS(=O)(=O)Nc1ccc2c(c1)C(=O)N(C)[C@@H]1CC[C@H](CC(=O)N3CCN(C)CC3)O[C@H]1CO2	0	-3	2.9
63	CC(C)NC(=O)Nc1ccc2c(c1)C(=O)N([C@@H](C)CO)C[C@H](C)[C@H](CN(C)C(=O)Nc1ccc(F)cc1)O2	-3	-2	-1.6
64	COc1ccccc1CN1[C@@H](CO)[C@@H](c2ccccc2)C12CN(C(C)=O)C2	3	4	-1.1

Only part of the results is shown, so the mix of outcomes need not match the whole.
